Menin-MLL FL inh: menin-MLL binding inhibition, fluorescein peptide; Fluorescence polarization, fluorescein-MLL peptide displacement from menin; FP activity change, % at 61.4 µM; 290,000 tested, under 10 active; AID 1766; inconclusive = falling polarisation curve, or a change in total fluorescence; inactive = total fluorescence flat and polarisation flat or rising; no compound was filed as active; the % refers to the polarisation; negative = inhibition;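 note: % of control where 0% means no effect; inhibitors lower the polarisation; unlabelled MLL peptide was the positive control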
Sfp inh: Sfp phosphopantetheinyl transferase inhibition; Biochemical Sfp PPTase activity, qHTS; Potency, µM, inactives show max response, negative = inhibition, actives largely listed as inhibitors; 310,000 tested, 3.5% active; active = well fitted inhibition curve with a large enough effect; inconclusive = small, poorly fitted or top-dose-only effect, or another doubt; inactive = no such curve, though single readings can be large or run the other way;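 note: the enzyme is Sfp with the accession as filed and its product quenches rhodamine fluorescence; potency is the fitted concentration of half-maximal effect; 0% = enzyme reaction without inhibitor and -100% = no enzyme wells; top concentration of the series not given in the record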
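Reaction rates are the 30-min fluorescence difference (ex 525, em 598 nm) in wells containing 15 nM Sfp, 5 uM rhodamine-CoA and 12.5 uM BHQ-2-YbbR at pH 7.6 with 10 mM MgCl2.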
TRPML1 ag: activates the human TRPML1 channel; TRPML1-expressing cells, Ca2+ dye fluorescence, FDSS; host cell line not named in the record; reference of the full effect not given here; activation, % (concentration not given with the values); 410,000 tested, 0.12% active; in the data active = activation above about 50%; inconclusive = about 30% to 50%; inactive = below about 30%; note: 0% is about no effect; the text of the record puts the active cut at 80%
Target sequence (Q9GZU1 whole entry, looked up): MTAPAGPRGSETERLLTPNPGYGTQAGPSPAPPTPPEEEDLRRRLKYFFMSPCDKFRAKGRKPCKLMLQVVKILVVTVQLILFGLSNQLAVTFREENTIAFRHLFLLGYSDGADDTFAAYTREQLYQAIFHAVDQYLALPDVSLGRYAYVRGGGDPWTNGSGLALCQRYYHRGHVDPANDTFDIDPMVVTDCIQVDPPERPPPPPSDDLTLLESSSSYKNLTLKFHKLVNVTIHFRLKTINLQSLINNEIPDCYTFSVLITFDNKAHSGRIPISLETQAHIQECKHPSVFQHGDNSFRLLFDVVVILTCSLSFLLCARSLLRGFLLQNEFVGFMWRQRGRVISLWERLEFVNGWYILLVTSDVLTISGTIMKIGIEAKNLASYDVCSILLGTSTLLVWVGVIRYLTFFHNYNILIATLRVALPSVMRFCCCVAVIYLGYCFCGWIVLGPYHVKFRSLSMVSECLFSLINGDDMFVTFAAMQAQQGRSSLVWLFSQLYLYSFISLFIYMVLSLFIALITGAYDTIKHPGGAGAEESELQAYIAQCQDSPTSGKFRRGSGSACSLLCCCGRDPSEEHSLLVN
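Agonist activity was taken from a 110 s kinetic Ca2+ dye read on the FDSS after pinning compounds onto TRPML1-DL cells. The cells were seeded at 1,500/well with Tet inducer, incubated about 16 h, then dye-loaded at room temperature.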
TRPV1 PAM: potentiators of human vanilloid receptor 1 (TRPV1); TRPV1-expressing cells, Fluo-8 calcium influx, capsaicin EC20 potentiation; host cell line not named in the record; control for the full effect not named in the record; Q8NER1; AID 540277; potentiation, % at 8.33 µM; 320,000 tested, 0.02% active; active means potentiation above 80%; inconclusive means 30% to 80%; inactive means below 30%; note: 0% is about no effect
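Fluo-8 calcium influx in TRPV1-expressing cells, kinetic read (ex 480/em 520 nm). Compound added and read 3 min for agonist activity, followed by capsaicin at EC20 final and 2 min further read for enhancement.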
TRPML1 blocker: inhibitors of human TRPML1 channel; Q9GZU1; TRPML1-inducible cells, Ca2+ dye fluorescence, FDSS; active compounds read low; inhibition of EC80 agonist-evoked calcium signal; activity change, negative = inhibition, % (concentration not given with the values); 390,000 tested, 0.02% active; AID 624415; in the data active means activity change below about -50%; inconclusive means about -30% to -50%; inactive means above about -30%;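 note: stimulus is agonist 54-4 at its EC80 concentration; % is set by controls: 0 for no effect and ±100 for the full control effect; the text of the record puts the active cut at -80%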
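Calcium fluorescence in TRPML1-DL cells induced overnight with Tet: a 110 s read after compound pin addition, then a 110 s antagonist read after challenge with 54-4 at 4 uM final (EC80).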
PINK1 expr mod: PINK1 expression modulation; PINK1 immunofluorescence, high-content cytometry, 24 h; Potency, µM (doses to about 76.6 µM), inactives show at the highest dose activation (PINK1 increase), usual class: activators; 410,000 tested, 0.2% active; active = well fitted activation curve with a large enough effect; inconclusive = small, poorly fitted or top-dose-only effect; inactive = flat fitted curve, though single readings scatter; cell line not stated here;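 note: potency is the fitted concentration of half-maximal effect; % of control where 0% means no effect; nearly all actives have a fitted effect of over 65% in size; a mitochondrial uncoupler was the plate control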
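A stable cell line was treated with compounds at 5 concentrations for 24 hours, with CCCP as control. PINK1 levels and mitochondrial localization were measured by immunofluorescence with mitochondrial, cell and nuclear markers after fixation, read by laser-scanning cytometry.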
ClpP mod: qHTS Assay for Activators of ClpP | ATP-dependent Clp protease proteolytic subunit (Bacillus subtilis (strain 168)), P80244 | purified B. subtilis ClpP, FRET peptide cleavage, 20 min | Potency, µM (highest dose often 57.5 µM), for the others: at the highest dose activity change, negative = active | 340,000 tested, 1.9% active | AID 651965, 2013; active = well fitted falling curve with a large enough effect; inconclusive = small, poorly fitted or top-dose-only effect; inactive = no such curve, though single readings can be large or run the other way; note: potency is the fitted concentration of half-maximal effect; the source files actives as falling curves though it sought activators and does not explain the sign; nearly all actives have a fitted effect of over 65% in size; many hits overshoot -100%
Target sequence (P80244 whole entry, looked up): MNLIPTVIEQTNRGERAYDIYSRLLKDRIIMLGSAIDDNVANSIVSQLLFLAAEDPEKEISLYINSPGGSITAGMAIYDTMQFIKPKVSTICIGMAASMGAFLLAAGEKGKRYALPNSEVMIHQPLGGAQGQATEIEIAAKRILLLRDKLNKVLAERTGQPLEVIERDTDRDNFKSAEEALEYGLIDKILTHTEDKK
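Purified B. subtilis ClpP, 10 microg/mL final in Tris/HCl pH8 with KCl, BSA, glycerol and Tween-20, cleaved an Abz/nitrotyrosine-quenched decapeptide. Fluorescence (ex 320, em 430) was read at 0 and 20 min at room temperature. Delta was normalized to 5.8 microM ADEP and DMSO/no-enzyme controls.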
* hit, by the source's call; ? = inconclusive; / = not tested or not shown; [ ] = remark or other dose.

SMILES | Menin-MLL FL inh | Sfp inh | TRPML1 ag | TRPV1 PAM | TRPML1 blocker | PINK1 expr mod | ClpP mod
CCCCNC(=O)C1(C)CCCCN1C(=O)c1cccc(OC(F)(F)F)c1 (stereo not given) | / | / | -0.5 | / | / | 2.6% | -2.8%
COc1ccc2[nH]c(=O)c(CN(Cc3cccnc3)S(=O)(=O)c3ccccc3F)cc2c1 | -1.1 | 7% | 0.1 | -6 | 1 | 0.7% | /
COc1cccc(CNC(=O)C23CN(Cc4ccccc4)CC2C(c2ccc([N+](=O)[O-])cc2)=NO3)c1 (stereo not given) | -1.0 | 7% | 0.2 | 4 | 23 | -0.6% | -0.8%
O=c1cc(/C=C/c2cccs2)[nH]c2ccccc12 | -0.8 | -23% | -0.3 | 4 | 0 | 16%[38.3 µM] | -8.7%
COc1cc(CN2CCN(S(=O)(=O)c3ccc(NC(C)=O)cc3)CC2)cc(OC)c1OC | / | / | 0.6 | / | 2 | -0.8% | -2.2%
O=C1CC(c2ccco2)Cc2nc(NCC3CCCO3)ncc21 (stereo not given) | -0.1 | -18% | 0.6 | 3 | -26 | -1.4% | -4.7%
CCC1=NC(c2ccc(OC)c(OC)c2)N(O)C1(C)C (stereo not given) | 2.8 | -7% | 0.3 | -18 | 3 | 1.1% | -3.2%
COc1ccc(C(=O)N/N=C/c2ccc(N3CCOCC3)s2)cc1OC | / | / | 0.1 | 3 | -2 | 0.5% | -3.2%
O=C(c1c(F)cccc1F)N1CCC(n2nnc3cc(C(F)(F)F)ccc32)CC1 | 0.6 | 4% | 0.2 | -6 | 1 | 1.4% | /
Cc1c(C(=O)O)sc2nc(CSc3nnc(-c4ccc(F)cc4)n3C)[nH]c(=O)c12 | 7.6 | 13% | 1.1 | -11 | 5 | 0.4% | 1.0%
CN(CC(=O)c1c(N)n(C)c(=O)n(C)c1=O)c1ccccc1 | -0.7 | 10% | 0.5 | 0 | -8 | 1.9% | -4.3%
CC(C)N(CCNC(=O)c1ccc(CS(=O)(=O)c2c(Cl)cccc2Cl)o1)Cc1ccccc1 | 0.9 | 16% | -0.7 | -10 | -1 | 1.5% | -0.9%
COc1cc(C(=O)NCc2ccc3c(c2)CCN3C(=O)c2ccc(Cl)cc2)cc(OC)c1OC | / | / | 0.2 | / | 1 | 4.2% | 0.3%
COc1ccc(C2c3[nH]c4ccccc4c3C[C@H]3C(=O)N(C4CCN(Cc5ccccc5)CC4)CC(=O)N23)c(OC)c1 (stereo not given in full) | 7.8 | 16% | 1.3 | 3 | 16 | 1.2% | -1.9%
COc1ccccc1S(=O)(=O)N1CCn2cccc2C1C (stereo not given) | / | / | 1.3 | -4 | -10 | -1.0% | 28µM*
Cc1ccc(NC(=O)CSc2ccc(S(=O)(=O)N3CCCC3)cn2)cc1F | / | / | -1.0 | -7 | -4 | 11% | 1.5%
Cc1nn(C)cc1C1C(C#N)=C(N)N(c2cccnc2)C2=C1C(=O)CCC2 (stereo not given) | -1.3 | -5% | 0.0 | 10 | 13 | 1.6% | -2.8%
COc1ccccc1NC(=S)c1ccccc1 | 3.9 | 32µM* | 0.8 | 30 | 5 | 2.2% | 0.4%
Cc1cc(C)n(CC(=O)NNC(=O)CCCOc2ccc(Cl)cc2C)n1 | / | -7% | -0.3 | 0 | -2 | 1.7% | 0.4%
CCn1ccnc1CN(C)Cc1c(C(=O)N2C[C@@H](C)O[C@@H](C)C2)nc2ccc(Cl)cn12 | / | 3% | 0.9 | 3 | -5 | -3.9% | -1.8%
O=C(NC1CCCC1)C1CCN(C(=O)NCc2ccccc2)CC1 | 0.5 | 22% | 3.6 | -11 | 31 | -0.4% | -1.1%
Cc1occc1C(=O)O/N=C(\N)c1ccccc1 | -1.1 | 6% | -0.1 | 8 | 11 | 0.6% | /
O=C(CN1CCN(S(=O)(=O)c2ccccc2)CC1)Nc1ccc(N2CCOCC2)cc1 | 0.2 | 9% | -0.1 | 7 | -11 | -4.1% | 0.6%
O=C(c1cc2ccccc2o1)n1nnc2ccccc21 | 1.5 | -2% | 0.1 | 21 | 8 | -0.4% | -7.5%
Cc1cc2oc(=O)cc(Cn3ccnc3)c2cc1Cl | 1.8 | 21% | -0.3 | -6 | 4 | 1.1% | /

The list goes on:
SMILES | Menin-MLL FL inh | Sfp inh | TRPML1 ag | TRPV1 PAM | TRPML1 blocker | PINK1 expr mod | ClpP mod
CC(C)C[C@]1(c2ccccc2)ON(c2ccccc2C(F)(F)F)C1=O | / | / | 1.2 | -15 | -3 | -0.5% | -3.4%
COCCNCc1ccc(Cl)cc1Cl | 3.7 | 3% | 3.9 | 7 | 27 | -0.4% | -2.8%
CN(C(=O)c1cc(Cl)c2c(c1)OCCO2)c1c(N)n(Cc2ccccc2)c(=O)[nH]c1=O | / | / | 0.1 | -7 | -5 | 3.7% | /
OCCNCCSc1nc(C2CCCCC2)n(-c2ccccc2Cl)n1 | 0.6 | -24% | -0.3 | / | 8 | -0.2% | /
Cc1ccccc1-c1nc(CS(=O)(=O)CC(=O)NCCN2CCOCC2)c(C)o1 | 1.7 | 7% | 0.1 | 12 | -5 | -0.5% | -2.1%
Cc1ccc(C(=O)OCC(=O)Nc2ccc(Cl)cn2)cc1S(=O)(=O)N1CCOCC1 | / | / | -0.6 | -7 | 10 | 1.8% | 1.0%
CSCC[C@H](NC(=O)[C@@H]1CSC2c3ccccc3C(=O)N21)C(=O)NC1CCCC1 (stereo not given in full) | / | 9% | -0.8 | 19 | 3 | 3.4% | 0.3%
COC(=O)c1cccc(NC(=O)c2ccc3c(c2)C(=O)N(C(C)(C)C)C3=O)c1 | 1.3 | 18% | 2.3 | -12 | 0 | 4.3% | /
CNC(=O)Nc1cccc(-c2cc(-c3c(Cl)cccc3Cl)no2)c1 | -0.6 | 5% | 0.1 | 0 | 4 | 1.7% | /
Cc1cc2c(c(=O)o1)C1(C(=O)N(C)c3ccccc31)C(C#N)=C(N)O2 (stereo not given) | -4.3 | 0% | -0.3 | 0 | 2 | 7.6% | -0.1%
CC(C)OC(=O)CC1C(=O)NCCN1C(=S)NC(=O)c1ccc(F)cc1 (stereo not given) | 1.5 | -25% | -0.5 | -5 | -9 | -0.4% | /
COc1ccccc1N1CCN(c2ccc(=O)n(CC(=O)Nc3cc(F)ccc3C)n2)CC1 | / | / | 0.7 | / | 1 | 2.7% | 0.8%
COCCNC(=O)CSc1nnc(-c2ccc(C)cc2)c(-c2ccc(C)cc2)n1 | -1.1 | -3% | 0.0 | -6 | -4 | 7.1% | -0.7%
O=c1nc(-c2ccccc2)n(-c2ccccc2)[nH]1 | -1.0 | 11% | 0.0 | 2 | -5 | -0.6% | -1.5%
COc1ccccc1/C=C/C(=O)NC(=S)N1CCOCC1 | / | 4% | -0.3 | 4 | 5 | -0.5% | -6.5%
CCN(CC(=O)Nc1ccc(NC(C)=O)cc1)C(=O)C1COc2ccccc2O1 (stereo not given) | / | 8% | 0.9 | -1 | 6 | -0.4% | -2.0%
COc1ccc(S(=O)(=O)c2c(SC)nn(Cc3ccccc3C)c2NC(C)=O)cc1 | / | / | -0.8 | / | 17 | 6.4% | 0.2%
O=C(Nc1ccccc1Br)C1CCCN(S(=O)(=O)c2cccc3nsnc23)C1 (stereo not given) | / | / | -0.6 | / | 34 | 0.5% | -1.7%
CSc1cccc(NC(=S)N(CCN(C)C)C(C)c2ccccn2)c1 (stereo not given) | -1.5 | -2% | 0.1 | -13 | 8 | 3.2% | /
CCn1c(C)cc(C)c(C#N)c1=O | -7.2 | 24% | 0.3 | 1 | 11 | 2.7% | -30%
Cc1ccc(SCc2[nH]nc3c2C(c2cccnc2)C(C#N)=C(N)O3)cc1 (stereo not given) | -0.4 | -7% | -0.6 | 1 | -7 | 0.8%[38.3 µM] | 0.6%
O=C(NN1C(=O)C2C3C=CC(C3)C2C1=O)c1ccccc1 (stereo not given) | -7.9 | 23% | -0.6 | -9 | -6 | 1.7% | /
CCN1C(=O)[C@H]2[C@@H](c3ccc(OC)cc3)N3C(=O)CN(CCOC)C(=O)[C@@]3(Cc3ccccc3)[C@H]2C1=O | 0.2 | 18% | -0.8 | 12 | -2 | 2.2% | -1.1%
CCc1ccc(NC(=O)CC2C(=O)N(c3cccc(C)c3)C(=O)N2C2CC2)cc1 (stereo not given) | 9.6 | 14% | -0.3 | 15 | -1 | 0.3% | -0.8%
O=C1CN(S(=O)(=O)c2cc(C(F)(F)F)ccc2Cl)CCN1 | / | / | -0.3 | 9 | 11 | -0.2% | -25%

The list continues.
SMILES | Menin-MLL FL inh | Sfp inh | TRPML1 ag | TRPV1 PAM | TRPML1 blocker | PINK1 expr mod | ClpP mod
CCn1c(-c2cccn(Cc3ccccc3)c2=O)n[nH]c1=S | 1.9 | 19% | 0.3 | -16 | 10 | -0.2% | /
O=[N+]([O-])c1cc(Br)cc(C=Nc2ccc3c(c2)OCO3)c1O | -0.1 | ? | 0.8 | / | 8 | 0.1% | 3.2%
Cc1nc2cnc(Oc3cccc(Cl)c3)nc2n(CCC#N)c1=O | 11 | 7% | / | / | / | 1.5% | /
O=C(OCC(=O)N1CCN(c2ccccc2)CC1)c1ccc(Cl)nc1 | / | / | 0.3 | 5 | 21 | -1.7% | /
COc1cc(OC)cc(-c2nnc(SCC(=O)Nc3cccc(C(=O)O)c3)s2)c1 | -1.1 | 6% | 1.5 | 13 | -6 | 0.5% | /
Cc1ccccc1NC(=O)CN1C(=O)CSc2ccc(S(=O)(=O)N3CCCC3)cc21 | -1.9 | 11% | -0.4 | 28 | -1 | 0.4% | -0.9%
Cc1sc2nc(SCc3nnc(-c4cccs4)o3)n(C3CCCC3)c(=O)c2c1C | 5.2 | 0% | 0.1 | -11 | 19 | -3.4% | -3.1%
COc1ccc(CC(=O)Nc2cc(S(=O)(=O)Nc3ccc(OC)cc3)ccc2OC)cc1 | / | / | 1.5 | / | 39 | -0.9% | -1.0%

Some of the entries above in another layout:
Order of results – Menin-MLL FL inh, Sfp inh, TRPML1 ag, TRPV1 PAM, TRPML1 blocker, PINK1 expr mod, ClpP mod
- Cc1nc2cnc(Oc3cccc(Cl)c3)nc2n(CCC#N)c1=O
 : 11, 7%, /, /, /, 1.5%, /
- O=C(OCC(=O)N1CCN(c2ccccc2)CC1)c1ccc(Cl)nc1
 : /, /, 0.3, 5, 21, -1.7%, /
- COc1cc(OC)cc(-c2nnc(SCC(=O)Nc3cccc(C(=O)O)c3)s2)c1
 : -1.1, 6%, 1.5, 13, -6, 0.5%, /
